# Source: PubChem
# UUG fidelity: modulators of start codon recognition fidelity in yeast. actives 0.13% (n = 350,000). activity score, % at 18.7 µM. S. cerevisiae UUG-firefly luciferase reporter, luminescence/redox ratio;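 active = replicate mean at a twofold rise or more, about +100% in these data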;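 note: firefly luciferase made from a UUG start codon reports start codon fidelity; reporter light over untreated wells divided by growth signal over untreated wells; some hits fall short of that in this replicate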
# MT1-MMP act inh: inhibitors of human MT1-MMP activation | HT1080 RFP-PRO-GFP cells, GFP/RFP ratio fluorescence, overnight; percent of plate control window, DMSO zero | P50281 | GFP/RFP ratio change, % at 20 µM | actives 0.061% (n = 360,000) | AID 651647;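 active = GFP/RFP ratio change of at least 30% with cell ATP level not reduced by more than half and red fluorescence within 50% of control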; note: strong numbers were not always called active
#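 Material: RFP-PRO-GFP reporter HT1080 cells. Dosing: single-point 20 µM compound, 1% DMSO. Controls: DMSO and RFP-L50D-GFP cell wells. Timing: cells overnight before dosing, compound overnight, 37 °C, 5% CO2. Measure: GFP/RFP fluorescence ratio.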
# MT1-MMP act inh RFP: further read-out of MT1-MMP act inh, marked with its call; RFP signal change, %; measured here: RFP expression control read;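 0 = vehicle wells; hits needed this value within 50% of zero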
# Numbers without * were called inactive; & = joins results of further samples. A portion of the library; count on the stated rates, not on these rows.
SMILES,UUG fidelity,MT1-MMP act inh,MT1-MMP act inh RFP
CCNC(=O)C1CCCN(C(=O)c2cc(C)oc2C)CC1 (stereo unspecified),-10.9,2.8,5.6
CN(CC(=O)NCC(=O)Nc1ccc(F)cc1)CC(=O)Nc1ccc(Cl)c(C(F)(F)F)c1,15.2,7.0,-1.0
O=C(c1ccc(N2CCCC2=O)cc1)N1CCN(c2ccccc2O)CC1,-13.3,6.6,-5.5
CC(Oc1ccc(Cl)cc1)C(=O)Nc1cccc(S(=O)(=O)N2CCOCC2)c1 (stereo unspecified),13.0,8.3,-5.2
Cc1cnc(N)nc1-c1ccccc1,8.2,-4.0,-3.6
CC(C)Oc1ccc(S(=O)(=O)N2CCOCC2)cc1NC(=O)CSC(=S)N1CCCC1,12.4,-6.1,-8.9
CCCCCCN(C(=O)CCCN1C(=O)NC(c2ccc([N+](=O)[O-])cc2)C(C(=O)OCc2ccccc2)=C1C)C(C)C(=O)NCCCC (stereo unspecified),5.6,-0.3,-13.8
Cc1c(NC(=O)c2cccc(NC(=O)Cc3ccccc3F)c2)c(=O)n(-c2ccccc2)n1C,7.3,-1.1,-0.6
COc1ccc(NC(=O)CCc2ccccc2)cc1S(=O)(=O)N1CCOCC1,-9.8,1.4,-1.1
C=Cn1cc(CNC[C@H]2O[C@@H](n3ccc(N)nc3=O)[C@H](O)[C@@H]2O)c(C)n1,-6.6,2.6,7.0
COC(=O)c1ccc(NC(=O)COC(=O)C2=NN(c3ccccc3)C(=O)CC2)cc1,-14.3,2.1,3.0
CN1CCN(c2ccc(CNC(=O)C3Cc4c(-c5ccc(Cl)cc5)ccnc4O3)cc2)CC1 (stereo unspecified),-10.1,-4.1,-8.9
CC(=O)Nc1ccc(NC(=O)c2cc(S(=O)(=O)N3CCCCC3)ccc2C)cc1,-6.4,8.7,-2.7
COc1cccc(-c2sc3cc(OC)c(OC)cc3c2-c2ccc(OCCN3CCCCC3)cc2)c1,-6.7,-4.5,-10.5
COc1cc(CNC(=O)c2cc(-c3ccc(F)cc3C)n[nH]2)cc(OC)c1,-16.2,5.1,3.5
COCCN(C(=O)C(C)N1C(=O)c2ccccc2C1=O)c1c(N)n(CC(C)C)c(=O)[nH]c1=O (stereo unspecified),-2.8,-0.8,0.0
CC(OC(=O)c1cc(S(=O)(=O)N2CCOCC2)ccc1F)C(=O)NC1CCCC1 (stereo unspecified),-3.9,-0.5,4.5
O=C(O)c1ccc(Cn2cnc3c(=S)nc[nH]c32)cc1,-6.8,4.2,1.6
CCOC1=C2CN(S(=O)(=O)c3ccc(C)cc3)[C@H](c3ccccc3)C[C@@H]2N(S(=O)(=O)c2ccccc2)[C@H](c2ccccc2)C1,-2.3,2.9,-4.8
COc1cccc(NC(=O)CN(C)C(=O)c2cccc(NS(=O)(=O)c3ccccc3)c2)c1,0.8,2.1,-0.6
C[C@@H]1CN([C@@H](C)CO)C(=O)CCCn2nncc2CO[C@@H]1CN(C)S(=O)(=O)c1cccc(F)c1,-6.8&1.1,-5.1,0.8
Cc1c(C(=O)OCC(=O)NCCN2C(=O)CSC2=O)cccc1[N+](=O)[O-],-14.3,1.6,-0.1
Cc1ccc(S(=O)(=O)NCCC(=O)N(C)Cc2cccs2)cc1,15.6,3.6,3.4
OC(CC(O)c1ccccc1)c1ccccc1 (stereo unspecified),-17.8,-3.1,5.4

# Quoted at random: 2 records from the list, in no set order.
SMILES,UUG fidelity,MT1-MMP act inh,MT1-MMP act inh RFP
COc1cccc(NC(=O)CN(C)C(=O)c2cccc(NS(=O)(=O)c3ccccc3)c2)c1,0.8,2.1,-0.6
COCCN(C(=O)C(C)N1C(=O)c2ccccc2C1=O)c1c(N)n(CC(C)C)c(=O)[nH]c1=O (stereo unspecified),-2.8,-0.8,0.0

# (further entries)
SMILES,UUG fidelity,MT1-MMP act inh,MT1-MMP act inh RFP
O=C(COC(=O)c1cnccn1)Nc1c(Cl)cc(Cl)cc1Cl,-8.0,-2.9,-2.1
C[C@@H]1CN([C@H](C)CO)C(=O)CCCn2nncc2CO[C@@H]1CN(C)S(=O)(=O)c1ccc(-n2cccn2)cc1,-11.1&12.2,-6.3,-1.6
Cc1ccc(NS(=O)(=O)c2ccc3[nH]c(=O)oc3c2)cc1Cl,2.6,0.7,0.3
Cc1cc2nc(C3CCCCC3)c(Cc3ccccc3)n2c(C)c1Br,-4.2,-7.3,-8.1
CC(OC(=O)Cc1ccsc1)C(=O)Nc1ccc(C(N)=O)cc1 (stereo unspecified),-17.7,0.5,3.3
Cc1cc2c(SCC(=O)Nc3ccccc3O)ncnc2s1,-26.4,-6.6,2.6
O=C(CCC(=O)c1ccc(Cl)s1)Nc1ncccc1O,-5.9,2.5,3.7
O=C(NCc1ccccc1CN1CCCC1)c1cccc(S(=O)(=O)N2CCCC2)c1,-10.1,-1.5,4.1
CC1(C(=O)NC2CCCCCC2)CCN1C(=O)C1(c2ccccc2)CC1 (stereo unspecified),-7.4,0.5,-7.7
O=C(c1cc(=O)[nH]c2ccccc12)N1CCN(S(=O)(=O)c2ccc(Cl)cc2)CC1,-9.1,1.7,-2.3
CC(C)Oc1cc(F)ccc1-c1cc(C(=O)Nc2ccc(F)cc2)[nH]n1,-5.5,4.5,-7.1
Cc1ccc(S(=O)(=O)N2CCCN(C)c3nc4ccccc4nc32)cc1,-19.5,-23.3,5.8
Cc1ccc2nc(-c3ccco3)c(CC3CCCCC3)n2c1,19.3,-4.6,-1.0
CCC(C)C1(C2CCCC2)NC(=O)NC1=O (stereo unspecified),3.1,2.8,0.6
Cc1sc2ncnc(N3CCC(C(=O)N4CC(C)SC4=Nc4ccc(Cl)cc4)CC3)c2c1C (stereo unspecified),-20.7,-2.8,-2.1
CC(C#N)N1CCN(S(=O)(=O)c2ccc3c(c2)CCC3)CC1 (stereo unspecified),-5.8,2.2,3.3
Cc1ccc(S(=O)(=O)N2CCCCC2)cc1NC(=O)CNC(C)c1ccc(Cl)c(Cl)c1 (stereo unspecified),-1.6,-2.0,-9.0
O=C(NCCc1ccccc1F)C1CC(=O)N(c2cccc(C(F)(F)F)c2)C1 (stereo unspecified),-18.3,-2.0,0.5
CCOc1ccc2oc(C(=O)N(CCOC)c3c(N)n(CC(C)C)c(=O)[nH]c3=O)c(C)c2c1,2.2,-2.8,0.8
COCCNC(=O)C1CCCN(C(=O)COCc2ccccc2)CC1 (stereo unspecified),-10.8,2.9,0.8
CC(Sc1nccn1C)C(=O)NC1(C#N)CCCCC1 (stereo unspecified),-11.4,-2.3,0.6
CC(=O)C1=CCC(c2ccc(C)cc2)N(S(=O)(=O)c2ccc(C)cc2)C1 (stereo unspecified),-21.2,1.0,0.8
CCN(CC(=O)Nc1c(F)cccc1F)C(=O)c1nn(C)c(=O)c2ccccc12,-13.2,-2.8,1.2
CC(N)c1csc(NC(=O)Nc2cccc(C(F)(F)F)c2)n1 (stereo unspecified),-8.8,-6.5,4.5
CN1CCC(OC(c2ccccc2)c2ccc(Cl)cc2)C1 (stereo unspecified),-22.0,-10.4,-3.9
CCCNC(=O)C1CN(C(=O)c2nn(Cc3ccccc3)c(=O)c3ccccc23)c2ccccc2O1 (stereo unspecified),-16.4,-4.4,-1.4
COc1ccc(C(CNC(=O)c2c(C)nn(Cc3ccccc3)c2Cl)N2CCOCC2)cc1 (stereo unspecified),-8.0,0.4,-0.1
Cc1cccc(C)c1NC(=O)COC(=O)c1cc(S(=O)(=O)Nc2ccc(Cl)cc2)ccc1O,-11.3,0.1,4.9
Cc1cc(C)c(S(=O)(=O)N2CCN(C(=O)c3ccc(-n4nc(C)c(Cl)c4C)cc3)CC2)c(C)c1,-4.9,-1.4,-16.7
COc1ccccc1NS(=O)(=O)c1cccc(C(=O)NCC(c2cccs2)N(C)C)c1 (stereo unspecified),4.5,3.0,-1.2
COc1cc(/C=C/C(=O)OCC(=O)N2CCN(S(=O)(=O)c3ccc(C)cc3C)CC2)ccc1OC(F)F,-14.2,0.6,-2.3
CCCCn1cnc2c(Sc3c([N+](=O)[O-])ncn3C)nc(N)nc21,-20.3,4.9,3.7
Cc1cccc(OCC(=O)OCC(=O)NCC2CCCO2)c1C (stereo unspecified),-8.5,0.6,2.5
Cc1cccc(C(=O)OCC(=O)NCC2COc3ccccc3O2)c1 (stereo unspecified),-9.6,-4.3,-0.2
CCc1noc(C)c1C(=O)NNC(=O)c1nn(C)c(=O)c2ccccc12,-12.6,0.8,5.0
O=C(NC1C/C=C\C(c2ccccc2)N(c2ccccc2)C(=O)C1)OCC1c2ccccc2-c2ccccc21 (stereo unspecified),-16.4,-1.1,-5.1
CCCN(CC(=O)Nc1ccccc1C)C(=O)c1ccc(S(=O)(=O)N2CCC(C)CC2)cc1,-7.1,5.7,-6.2
CC1(c2ccc3ccccc3c2)NC(=O)N(CC(=O)N2CCCC(C(F)(F)F)C2)C1=O (stereo unspecified),-23.2,4.2,-0.4
CCN1CCN(C(=O)c2cc(-c3ccco3)nc3ccccc23)CC1,-1.6,-3.0,4.1
Cc1ccc(S(=O)(=O)Nc2cccc(C(=O)N3CCC(C(N)=O)CC3)c2)cc1,-34.1,-1.3,-2.9
CCN(CC)CCNC(=O)C1(c2ccccc2)CCCCC1,-4.7,-1.9,1.3
O=C(NCc1ccc(F)c(F)c1)c1cccc2c(-c3cccnc3)coc12,-1.4,6.5,-20.4
Cc1ccc(C)c(OCCC(=O)Nc2cccc(S(=O)(=O)N3CCCCC3)c2)c1,-10.0,7.4,-10.3
COc1ccc(CCNC(=O)COC(=O)c2cc(=O)c3ccccc3o2)cc1,5.4,0.0,3.7
N#Cc1cccc(Oc2ccc(S(=O)(=O)N3CCCC3)cn2)c1,-13.4,0.9,5.1
CCc1noc(C)c1C(=O)OC(C)C(=O)NCc1ccc(OC)cc1 (stereo unspecified),2.6,1.2,1.6
CCN(C(=O)COc1ccccc1C(=O)NCc1ccccc1)C1CCS(=O)(=O)C1 (stereo unspecified),-14.0,1.8,2.6
CCC(C(=O)Nc1ccc(S(=O)(=O)N(C)C2CCN(C)CC2)cc1)c1ccccc1 (stereo unspecified),-44.2,-0.4,1.1

# Not a retest: four of the compounds above.
SMILES,UUG fidelity,MT1-MMP act inh,MT1-MMP act inh RFP
CCNC(=O)C1CCCN(C(=O)c2cc(C)oc2C)CC1 (stereo unspecified),-10.9,2.8,5.6
CN(CC(=O)NCC(=O)Nc1ccc(F)cc1)CC(=O)Nc1ccc(Cl)c(C(F)(F)F)c1,15.2,7.0,-1.0
O=C(c1ccc(N2CCCC2=O)cc1)N1CCN(c2ccccc2O)CC1,-13.3,6.6,-5.5
CC(Oc1ccc(Cl)cc1)C(=O)Nc1cccc(S(=O)(=O)N2CCOCC2)c1 (stereo unspecified),13.0,8.3,-5.2

# Next section:
SMILES,UUG fidelity,MT1-MMP act inh,MT1-MMP act inh RFP
O=C(c1ccc2nc[nH]c2c1)N1CCN(S(=O)(=O)c2cccc(Cl)c2)CC1,-16.4,0.8,-3.2
CN(CC(=O)Nc1cccc(F)c1)CC(=O)Nc1cc(S(=O)(=O)N2CCOCC2)ccc1Cl,-8.0,2.5,-11.0
NC(=O)C1CCN(C(=O)c2ccc(NS(=O)(=O)c3ccc(F)c(F)c3)cc2)CC1,0.2,-2.4,1.1
Cc1ccc(Cc2c(-c3ccc(C)cc3)nc3ccc(Br)cn23)cc1,-15.3,-10.5,-5.1
O=C(c1ccccc1)c1ccc[nH]1,-1.9,2.5,4.4
Cc1ccc(C)c(S(=O)(=O)N(C)c2ccc(OC(=O)CN3C(=O)NC4(CCCC4)C3=O)cc2)c1,-1.1,0.2,4.1
O=C(CN1C(=O)NC(c2ccccc2)(c2ccccc2)C1=O)N1CCOCC1,-2.2,0.9,2.8
Cn1c(SCC(=O)NC(=O)NCc2ccccc2)nnc1C(F)(F)F,4.6,0.1,2.6
CSc1nc2ncncc2[nH]1,-20.3,-2.1,3.1
CC1CCCC(NC(=O)CN2CCN(S(=O)(=O)c3ccc(Br)s3)CC2)C1C (stereo unspecified),-4.1,-1.1,-4.3
COc1ccc(S(=O)(=O)N2CCN(c3nc(-c4cccnc4)nc4ccccc34)CC2)cc1,-4.1,-7.1,-9.3
CCNC(=S)Nc1ccc2c(c1)c(=O)n(C)n2-c1ccc(C(C)(C)C)cc1,-13.1,-3.3,-10.6

# Molecules shown so far with two or more sulfur atoms, in the order listed:
SMILES,UUG fidelity,MT1-MMP act inh,MT1-MMP act inh RFP
CC(C)Oc1ccc(S(=O)(=O)N2CCOCC2)cc1NC(=O)CSC(=S)N1CCCC1,12.4,-6.1,-8.9
CCOC1=C2CN(S(=O)(=O)c3ccc(C)cc3)[C@H](c3ccccc3)C[C@@H]2N(S(=O)(=O)c2ccccc2)[C@H](c2ccccc2)C1,-2.3,2.9,-4.8
Cc1ccc(S(=O)(=O)NCCC(=O)N(C)Cc2cccs2)cc1,15.6,3.6,3.4
Cc1cc2c(SCC(=O)Nc3ccccc3O)ncnc2s1,-26.4,-6.6,2.6
Cc1sc2ncnc(N3CCC(C(=O)N4CC(C)SC4=Nc4ccc(Cl)cc4)CC3)c2c1C (stereo unspecified),-20.7,-2.8,-2.1
COc1ccccc1NS(=O)(=O)c1cccc(C(=O)NCC(c2cccs2)N(C)C)c1 (stereo unspecified),4.5,3.0,-1.2
CC1CCCC(NC(=O)CN2CCN(S(=O)(=O)c3ccc(Br)s3)CC2)C1C (stereo unspecified),-4.1,-1.1,-4.3
